# rRNA inh HTS = reduced GFP signal of wild-type E. coli, primary screen, bacterial rRNA inhibitor project, GFP/RFP fluorescence, OD600, single point. E. coli WT GFP vs humanized-ribosome RFP mutants, 24 h; active compounds read low; DMSO median 0, no signal -100. GFP signal change (wild-type ribosome), % (test concentration not listed). hit rate 1.6% among 350,000. AID 720706, 2013;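 active = significant combined selectivity score with lowered wild-type GFP, culture density cut under 30%, mutant RFP and density less affected; inactive = any of these conditions unmet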; also: one replicate is shown; some compounds called inactive have numbers as strong as hits
# FGF22 binding = binders of human FGF22 protein, primary screen, FGF22 synaptogenesis inhibitor project, biophysical, thermal shift, single point | recombinant FGF22 thermal shift, SYPRO orange fluorescence; percent of sucrose octasulfate shift, DMSO zero | AID 651658, 2012 | hit rate 1.5% among 340,000 | Fibroblast growth factor 22 (Homo sapiens), Q9HCT0 | calls only at 9.99 µM;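 active = melting point raised past a set limit in the mean and every replicate; three in four hits are not shown here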
# Target sequence (Q9HCT0 whole entry, looked up): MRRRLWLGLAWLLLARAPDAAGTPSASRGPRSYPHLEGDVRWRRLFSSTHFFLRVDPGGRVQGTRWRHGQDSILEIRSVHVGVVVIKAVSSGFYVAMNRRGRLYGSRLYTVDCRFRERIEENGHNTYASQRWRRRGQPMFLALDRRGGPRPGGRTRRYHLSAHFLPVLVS
# rRNA inh HTS OD600 = also measured in rRNA inh HTS; calls as there; OD600 change, %; measured here: OD600 growth;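 optical density of the mix in the first replicate; 0 = DMSO median and -100 = no signal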
# rRNA inh HTS RFP = also measured in rRNA inh HTS; calls as there; RFP signal change, %; measured here: RFP humanized mutant strains;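 first replicate; 0 = DMSO median and -100 = no signal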
# Numbers without * were called inactive; i = inactive.
SMILES,rRNA inh HTS,rRNA inh HTS OD600,rRNA inh HTS RFP,FGF22 binding
C[C@@H]1CN([C@@H](C)CO)C(=O)c2cc(NC(=O)Nc3ccc4c(c3)OCO4)ccc2O[C@H]1CN(C)C(=O)Nc1ccc2c(c1)OCO2,2.9,8.6,-1.4,i
C[C@@H](NC(=O)C[C@@H]1CC[C@@H](NC(=O)Cc2ccccn2)[C@H](CO)O1)c1ccccc1,-4.2,3.0,1.1,i
N#C[C@@H]1[C@H](c2ccc(-c3cccnc3)cc2)[C@H](CO)N1C(=O)C1CC1,1.7,-1.2,1.9,i
O=C(c1ccccn1)N1C[C@H]2[C@@H](c3ccccc31)[C@H](CO)N2C(=O)Cc1ccccc1,2.8,7.0,-3.5,i
C[C@H](CO)N1C[C@H](C)[C@H](CN(C)Cc2ccc3c(c2)OCO3)Oc2ncc(C#CCN(C)C)cc2C1=O,2.2,11.2,-1.5,i
CO[C@@H]1CC[C@@H]2CCN(C)C(=O)[C@@H](C)CN(C)C(=O)c3cccc(C#N)c3OC[C@@H]1O2,4.2,10.0,-1.4,i
C[C@H](CO)N1C[C@H](C)[C@@H](CN(C)Cc2ccc3c(c2)OCCO3)OCc2cn(nn2)CCCC1=O,-0.4,8.9,0.8,i
C[C@H](NC(=O)C[C@H]1C=C[C@@H](NC(=O)Cc2ccccn2)[C@H](CO)O1)c1ccccc1,4.9,3.7,-1.4,i
O=C(N[C@H]1C=C[C@@H](CC(=O)N2CCCCC2)O[C@H]1CO)c1cccc(F)c1,2.5,5.0,-1.7,i
Cc1noc(C)c1S(=O)(=O)N(C)C[C@H]1Oc2ccc(NC(=O)Nc3cccc4ccccc34)cc2CC(=O)N([C@H](C)CO)C[C@H]1C,-1.5,-8.6,1.3,i
O=C1NC(c2ccccc2)c2c(-c3ccccc3)n[nH]c21 (stereo not drawn),21.5,27.7,5.2,i
O=C(NCC[C@H]1CC[C@@H](NC(=O)c2ccccc2F)[C@H](CO)O1)c1ccc2c(c1)OCO2,-1.9,3.3,-1.3,i
Cc1noc(C)c1NC(=O)N(C)C[C@H]1Oc2ncc(/C=C/c3ccccc3)cc2C(=O)N([C@H](C)CO)C[C@H]1C,1.7,11.2,-1.3,i
COc1ccc(CN(C)C[C@H]2Oc3ccc(NC(=O)CCC(F)(F)F)cc3CC(=O)N([C@@H](C)CO)C[C@H]2C)cc1,-0.2,-3.2,-1.2,i
O=C(C1CCC1)N1C[C@H]2[C@@H](c3ccccc31)[C@H](CO)N2C(=O)Nc1cccc(F)c1,-1.8,-6.0,-0.2,i
C[C@H](CO)N1C[C@H](C)[C@H](CN(C)C)OCCCC[C@H](C)Oc2ccc(NC(=O)C3CCCCC3)cc2C1=O,4.4,4.3,-0.3,i
C[C@@H]1CN([C@@H](C)CO)C(=O)c2cc(NC(=O)CCN3CCOCC3)ccc2O[C@H]1CN(C)S(C)(=O)=O,4.2,9.0,-4.0,i
CNC[C@H]1Oc2ccc(NS(=O)(=O)c3c(C)noc3C)cc2CC(=O)N([C@@H](C)CO)C[C@H]1C,3.7,3.8,-0.1,i
CCNC(=O)C[C@H]1CC[C@@H]2[C@H](COC[C@H](O)CN2C(=O)CC)O1,-0.4,10.5,2.7,i
COc1ccc(S(=O)(=O)N(C)C[C@@H]2Oc3ccc(NC(=O)Nc4ccc5c(c4)OCO5)cc3CC(=O)N([C@@H](C)CO)C[C@@H]2C)cc1,2.8,-14.2,4.2,i
O=C(C[C@@H]1CC[C@H]2[C@@H](COC[C@H](O)CN2C(=O)Nc2ccc(Cl)cc2)O1)NCCc1ccncc1,-24.6,-31.4,3.4,i
C[C@@H]1CN([C@@H](C)CO)C(=O)c2cccc(NS(=O)(=O)c3cn(C)cn3)c2O[C@@H]1CN(C)C(=O)NC1CCCCC1,3.7,-4.6,-2.8,i
C[C@H](CO)N1C[C@H](C)[C@H](CN(C)Cc2ccc(C(F)(F)F)cc2)Oc2c(NS(=O)(=O)c3ccccc3)cccc2C1=O,-4.5,-8.8,1.7,i
C[C@H](CO)N1C[C@H](C)[C@@H](CN(C)C(=O)Nc2ccc3c(c2)OCO3)Oc2c(NC(=O)Nc3cccc4ccccc34)cccc2C1=O,2.4,12.0,-1.4,i
C[C@@H]1CN([C@@H](C)CO)C(=O)c2cccc(NS(=O)(=O)c3ccccc3)c2O[C@@H]1CN(C)S(=O)(=O)c1ccc(Cl)cc1,-0.7,-10.1,1.4,i

# Other entries
SMILES,rRNA inh HTS,rRNA inh HTS OD600,rRNA inh HTS RFP,FGF22 binding
CC(C)NC(=O)N(C)C[C@@H]1Oc2ncc(C#CC3CCCC3)cc2C(=O)N([C@H](C)CO)C[C@@H]1C,1.9,-5.4,0.5,i
O=C(C[C@@H]1C[C@@H]2c3cc(NS(=O)(=O)c4ccc(F)cc4)ccc3O[C@@H]2[C@@H](CO)O1)NCc1cccc(F)c1,3.3,-13.5,-1.6,i
C[C@@H](NC(=O)C[C@H]1C[C@@H]2c3cc(NS(C)(=O)=O)ccc3O[C@@H]2[C@H](CO)O1)c1ccccc1,2.0,7.0,-1.3,i
C[C@H](CO)N1C[C@H](C)[C@H](CN(C)C(=O)CN(C)C)Oc2ncc(/C=C/c3ccccc3)cc2C1=O,8.5,11.8,1.4,i
Cc1ccc(S(=O)(=O)N(C)c2ccc(OCC(=O)Nc3cc(C(=O)O)ccc3Cl)cc2)cc1,-26.8,-42.9,-6.9,i
COC(=O)C[C@@H]1C[C@H]2c3cc(NC(=O)Nc4ccc(F)cc4)ccc3O[C@H]2[C@H](CO)O1,-7.4,-14.9,-1.6,i
CC(C)NC(=O)NCC[C@@H]1CC[C@@H](NC(=O)Nc2ccccc2)[C@H](CO)O1,3.5,1.4,-0.4,i
CCC(=O)Nc1ccc2c(c1)C(=O)N(C)C[C@H](OC)[C@@H](C)CN(CCC(F)(F)F)[C@H](C)CO2,-1.6,0.7,-0.1,i
C[C@H]1CN([C@@H](C)CO)C(=O)c2cc(NC(=O)Cn3cnnn3)ccc2O[C@H]1CN(C)Cc1ccc(C(=O)O)cc1,6.2,5.9,2.1,i
COc1ccccc1-c1ccc([C@@H]2[C@@H](CO)N3CCCCN(C(=O)c4ccncc4)C[C@@H]23)cc1,-0.7,-6.1,-1.5,i
C[C@@H]1CN([C@H](C)CO)C(=O)c2c(c3ccccc3n2C)-c2ccccc2CO[C@@H]1CN(C)Cc1ccc2c(c1)OCCN2C,-0.1,-1.1,5.5,i
COCC(=O)N(C)C[C@H]1Oc2cc(-c3ccc(F)cc3)ccc2S(=O)(=O)N([C@H](C)CO)C[C@@H]1C,-1.1,-5.6,-0.2,i
O=C(c1ccc2c(c1)OCO2)N1C[C@@H]2N[C@H](C1)C2c1ccc(-c2cncnc2)cc1 (stereo partly drawn),2.8,7.8,-5.2,i
C[C@H]1CN([C@@H](C)CO)C(=O)c2cc(C#CC3(O)CCCC3)cnc2O[C@H]1CN(C)C(=O)Nc1ccc2c(c1)OCO2,2.7,7.7,-2.2,i
C[C@@H]1CN([C@@H](C)CO)C(=O)Cc2cc(NC(=O)Nc3ccc4c(c3)OCO4)ccc2O[C@H]1CN(C)Cc1ccc(-c2ccccc2)cc1,-5.4,-5.6,2.2,i
O=C(N[C@H]1CC[C@@H](CCn2cc(C3(O)CCCC3)nn2)O[C@H]1CO)c1ccccc1F,-2.6,-4.1,0.1,i
CCC(=O)Nc1ccc2c(c1)C(=O)N(C)C[C@@H](OC)[C@@H](C)CN[C@H](C)CO2,0.8,4.5,1.2,i
O=C(CCN1CCCCC1)N[C@@H]1CC[C@H](CCn2cc(-c3ccccc3)nn2)O[C@H]1CO,3.9,1.6,-2.5,i
C[C@@H]1CCCCO[C@H](CN(C)C(=O)CCCN(C)C)[C@H](C)CN([C@@H](C)CO)C(=O)c2cc(NC(=O)c3ccccc3)ccc2O1,-0.4,0.2,-2.2,i
CC(=O)NC[C@H]1[C@H](c2ccc(-c3ccccc3F)cc2)[C@H](CO)N1C(=O)C1CC1,-3.2,-6.8,4.0,i
O=C(C[C@H]1C[C@@H]2c3cc(NC(=O)NC4CCCC4)ccc3O[C@@H]2[C@@H](CO)O1)NC1CCCC1,-1.5,-5.6,-0.3,i
COc1ccccc1-c1cnc2c(c1)C(=O)N([C@@H](C)CO)C[C@H](C)[C@@H](CN(C)Cc1cccc(F)c1)O2,1.7,-9.0,-2.6,i
O=C(Nc1cccc(F)c1)N1C[C@H]2[C@@H](c3ccccc31)[C@H](CO)N2C(=O)c1ccccc1F,-4.4,-9.1,4.5,i
C[C@H](CO)N1C[C@H](C)[C@@H](CN(C)Cc2ccccc2)OCCCC[C@H](C)Oc2ccc(NC(=O)Cc3ccccc3)cc2C1=O,1.7,5.3,-2.9,i
C[C@@H]1CN([C@@H](C)CO)S(=O)(=O)c2ccc(C#Cc3cccc(F)c3)cc2O[C@H]1CN(C)C(=O)CN1CCOCC1,-6.7,-19.4,6.0,i

# Ordered by formula weight (descending): some entries from above
SMILES,rRNA inh HTS,rRNA inh HTS OD600,rRNA inh HTS RFP,FGF22 binding
C[C@H](CO)N1C[C@H](C)[C@@H](CN(C)Cc2ccccc2)OCCCC[C@H](C)Oc2ccc(NC(=O)Cc3ccccc3)cc2C1=O,1.7,5.3,-2.9,i
C[C@@H]1CN([C@H](C)CO)C(=O)c2c(c3ccccc3n2C)-c2ccccc2CO[C@@H]1CN(C)Cc1ccc2c(c1)OCCN2C,-0.1,-1.1,5.5,i
CCC(=O)Nc1ccc2c(c1)C(=O)N(C)C[C@H](OC)[C@@H](C)CN(CCC(F)(F)F)[C@H](C)CO2,-1.6,0.7,-0.1,i
O=C(CCN1CCCCC1)N[C@@H]1CC[C@H](CCn2cc(-c3ccccc3)nn2)O[C@H]1CO,3.9,1.6,-2.5,i
O=C(c1ccc2c(c1)OCO2)N1C[C@@H]2N[C@H](C1)C2c1ccc(-c2cncnc2)cc1 (stereo partly drawn),2.8,7.8,-5.2,i
CCC(=O)Nc1ccc2c(c1)C(=O)N(C)C[C@@H](OC)[C@@H](C)CN[C@H](C)CO2,0.8,4.5,1.2,i

# Remaining list, next part
SMILES,rRNA inh HTS,rRNA inh HTS OD600,rRNA inh HTS RFP,FGF22 binding
CO[C@H]1CC[C@@H]2CCOc3c(C#N)cccc3C(=O)N(C)C[C@@H](C)C(=O)N(C)C[C@@H]1O2,1.6,5.8,2.5,i
O=C(Nc1ccccc1F)N[C@@H]1CC[C@H](CCNC(=O)C2CCC2)O[C@H]1CO,-1.8,-10.0,1.7,i
C[C@@H]1CN([C@H](C)CO)C(=O)Cc2cc(NC(=O)CCCCCC(=O)Nc3ccccc3N)ccc2O[C@@H]1CN(C)C,1.4,14.1,-0.9,i
C[C@@H]1CN([C@@H](C)CO)C(=O)c2cccc(NC(=O)C3CCOCC3)c2O[C@@H]1CN(C)S(=O)(=O)c1ccc(Cl)cc1,-9.8,-10.1,-3.1,i
Cc1ccc(S(=O)(=O)N(C)C[C@@H]2Oc3ccc(NC(=O)Cn4cnnn4)cc3CC(=O)N([C@@H](C)CO)C[C@H]2C)cc1,-1.6,1.4,1.0,i
O=C1CN(Cc2ccc(F)cc2)C[C@H]2[C@H](c3ccc(-c4ccccc4)cc3)[C@@H](CO)N12,-5.2,-28.9,17.4,i
COc1ccc(NC(=O)N(C)C[C@H]2Oc3cc(-c4ccncc4)ccc3S(=O)(=O)N([C@H](C)CO)C[C@H]2C)cc1,-4.2,0.8,2.0,i
C[C@@H]1CN([C@@H](C)CO)C(=O)c2cc(NC(=O)C3CCCCC3)ccc2O[C@@H](C)CCCCO[C@H]1CN(C)Cc1ccc(Cl)c(Cl)c1,1.7,-8.2,-1.3,i
O=C(N[C@H]1CC[C@H](CCNS(=O)(=O)c2ccc(F)cc2)O[C@H]1CO)c1cccc(F)c1,2.3,7.4,-3.9,i
CNC(=O)C[C@@H]1CC[C@@H]2[C@@H](COc3ccc(NC(=O)Nc4c(C)noc4C)cc3C(=O)N2C)O1,1.8,4.8,-0.4,i
CC[C@H](NC(=O)[C@@H](Cc1ccccc1)NC(=O)[C@H]1O[C@@H](n2cnc3c(=O)[nH]c(N)nc32)[C@H](O)[C@@H]1O)c1ccccc1,8.9,13.4,1.3,i
O=C(C[C@H]1CC[C@H]2[C@@H](COC[C@@H](O)CN2S(=O)(=O)c2ccc(Cl)cc2)O1)N[C@@H]1CCN(Cc2ccccc2)C1,0.8,8.7,0.6,i
CN(C)C(=O)c1cccc(-c2ccc([C@H]3[C@@H](C#N)N(C(=O)C4CCC4)[C@@H]3CO)cc2)c1,1.8,0.8,-0.2,i
C[C@@H]1CN([C@H](C)CO)C(=O)c2cc(NC(=O)c3ccncc3)ccc2O[C@@H]1CN(C)Cc1ccc(Oc2ccccc2)cc1,-5.8,-6.5,15.3,i
CNC(=O)C[C@H]1CC[C@H]2[C@@H](COc3ccc(NC(=O)c4ccc(OC)cc4)cc3C(=O)N2C)O1,-1.0,0.4,0.2,i
Cc1noc(C)c1NC(=O)Nc1ccc2c(c1)C(=O)N([C@@H](C)CO)C[C@H](C)[C@@H](CN(C)C(=O)NC1CCCCC1)O2,5.0,4.9,1.9,i
COc1ccc(-c2ccc([C@@H]3[C@@H](CO)N(C(=O)C4CCCCC4)[C@H]3C#N)cc2)cc1,-0.2,9.3,-5.2,i
C/C=C/c1cnc2c(c1)C(=O)N([C@H](C)CO)C[C@@H](C)[C@H](CN(C)Cc1ccccc1F)O2,2.2,12.8,-3.4,i
C[C@@H]1CN([C@H](C)CO)C(=O)c2cc(C#C[C@@H](C)O)cnc2O[C@@H]1CN(C)Cc1ccc(-c2ccccc2)cc1,2.4,-2.1,2.0,i

# The list is partial, so the mix of outcomes need not match the whole.
